# 2A Renilla: lowers the Renilla signal of an FMDV 2A StopGo reporter; HEK cells with a luciferase reporter of 2A StopGo recoding; Potency, µM (titrated, usually from 57.5 µM), for the others: at the top dose signal change, negative = less light; hit rate 0.32% among 120,000; AID 1745857; active means well fitted falling curve with a large enough effect; inconclusive means small, poorly fitted or top-dose-only effect; inactive means no such curve, though single readings can be large or run the other way; note: nearly all actives have a fitted effect of over 55% in size; overnight with compound
# StopGo FLuc: FMDV 2A StopGo reporter, firefly signal | HEK cells with a luciferase reporter of 2A StopGo recoding | Potency, µM (series often up to 57.5 µM), without a hit: at the top dose signal change, negative = less light | hit rate 0.23% among 120,000 | AID 1745856; active = well fitted falling curve with a large enough effect; inconclusive = small, poorly fitted or top-dose-only effect; inactive = no such curve, though single readings can be large or run the other way; note: nearly all actives have a fitted effect of over 60% in size; overnight with compound
# The depositor's hits bear a star; ? = inconclusive; & = joins results of further samples; [ ] = dose if it differs, or a comment. % is set by controls: 0 for no effect and ±100 for the full control effect; potency is the fitted concentration of half-maximal effect. An excerpt; count on the stated rates, not on these rows.
canonical_smiles,StopGo FLuc,2A Renilla
CCC1CN(C(=O)NCc2ccc(F)cc2)c2cc(C)ccc2O1 (centres undefined),-6%,2%
CC1CCC(c2nnnn2-c2ccccc2)(N2CCOCC2)CC1 (centres undefined),-1%,19%
COc1cccc(CNC(=O)C(Cc2ccccc2)NS(=O)(=O)c2ccc3c(c2)CCN3C(C)=O)c1 (centres undefined),-14%,58%[activator]
CC1CCc2c(sc(NC(=O)c3ccc(Cl)cc3Cl)c2C#N)C1 (centres undefined),-1%,-10%
CCCCn1c(=O)[nH]c(=O)c2c1nc(COC(=O)c1cc(C)cc(C)c1)n2CCC,1%,-5%
CC(C)(C)c1cc(Oc2cc(C(C)(C)C)cc(C(C)(C)C)c2O)c(O)c(C(C)(C)C)c1,33%[activator],14%
COc1cccc(NC(=O)CCc2c(C)c3ccc(OC)c(C)c3oc2=O)c1,-6%,-7%
c1cc2c(cc1-c1csc(C3CC3)n1)OCCCO2,13%,19%
CC(C)CCN1C(=O)c2ccc(-c3nc4ccccc4o3)cc2C1=O,-6%,-2%
CN1CCN(c2ccc(NC(=O)c3cc(F)cc(F)c3)nc2)CC1,-3%,-7%
Cc1ccc(-c2ccc(/C=C/C(=O)c3ccccc3)o2)cc1Cl,34%[activator],-9%
CC(=O)c1cccc(NC(=O)Nc2c(C)n(C)n(-c3ccccc3)c2=O)c1,0%,-22%
O=C(c1ccc(Cl)cc1O)N1CCN(S(=O)(=O)c2ccc(Br)cc2)CC1,?,?
CCCn1c(=O)c2c(nc(-n3nc(C)cc3C)n2CC)n(C)c1=O,4%,3%
COc1cc(OC)cc(C(=O)Nc2ccc3oc(-c4ccccc4Cl)nc3c2)c1,0%,-10%
COc1ccc(NC(=O)c2sc3nc(N4CCOCC4)c4c(c3c2N)CC(C)(C)OC4)cc1,23%,18%
CCCCN(CCCC)S(=O)(=O)c1ccc2oc(C(=O)NCc3ccc(C)cc3)c(C)c2c1,-16%,-6%
CCCCOc1ccc(C(=O)Nc2ccccc2C(C)(C)C)cc1OCC,-5%,-6%[1.06 µM]
COc1ccc(NC(=O)N2CCc3c(sc4c3CCCC4)C2c2ccc(F)cc2)cc1 (centres undefined),-1%,-7%
CC(C)Oc1cccc(NC(=O)/C=C/c2ccc(F)cc2)c1,?,?
COC(=O)c1c(SCC(=O)Nc2ccc(Cl)cc2F)nc(=O)[nH]c1C,-2%,2%
COc1ccc2cc(CNc3ccc(C)cc3)c(=O)n(CC(=O)Nc3cccc(Cl)c3C)c2c1,13%,2%
CNc1c(NC(=O)CCc2ccccc2)c(=O)oc2ccccc12,11%,33%[activator]
O=C(COc1ccc(-n2cnnn2)cc1)NC1CC1,10%,0%
COc1cc(S(=O)(=O)Nc2ccc(S(C)(=O)=O)cc2)ccc1NC(C)=O,8%,47%[activator]
COc1ccc(Nc2ncnc3c2cnn3-c2ccc(C)cc2)cc1Cl,?,?
CCOC(=O)c1ccccc1C(=O)c1ccccc1,30%,0%
CCOc1ccccc1Nc1sc(C(=O)c2ccc(Cl)cc2)c(N)c1S(=O)(=O)c1ccccc1,-17%,-8%
Cc1oc(-c2nc(C#N)c(NCc3cccnc3)o2)cc1S(=O)(=O)N1CCCCC1,-7%,35%[activator]
O=C(Nc1cc(Cl)ccc1Cl)c1ccccc1-c1ccccc1,0%,49%[activator]

# (list continues)
canonical_smiles,StopGo FLuc,2A Renilla
CCc1ccc(C(c2ccccc2)c2c(C)[nH]c3ccccc23)s1 (centres undefined),51%[activator],13%
Nc1nc(CN2CCC(O)CC2)nc2ccccc12,-1%,-9%
CC1CCN(c2oc(COc3ccccc3F)nc2C#N)CC1,174%[activator],14%
Cc1ccc(C)c(N(C)C(=O)C2CCN(c3ncnc4c3nc3n4CCCCC3)CC2)c1,-10%,-8%
COc1cc(-c2nnc(SCC(=O)NCc3ccccc3Cl)o2)cc(OC)c1OC,0%,-6%
COCCCNC(=O)c1oc2c(c1C)-c1nn(Cc3cccc(Cl)c3)cc1CC2,-8%,2%
C[C@]12CCCCC1CCC1C2CC[C@]2(C)C(N)CCC12 (some centres undefined),-17%,-4%
CCn1cnc2c(=O)oc3ccc(S(=O)(=O)N4CCN(c5cc(C)ccc5C)CC4)cc3c21,-13%,-8%
CNC(=O)C1CCCN(S(=O)(=O)c2c(C)nn(CC(=O)N3CCc4ccccc43)c2C)C1 (centres undefined),-6%,-6%
CO[C@@]12[C@H](COC(N)=O)C3=C(C(=O)C(C)=C(N)C3=O)N1C[C@@H]1N[C@@H]12,-15%[11.5 µM],-8%
Cc1ccc(CCNC(=O)CN(c2ccc(C(C)C)cc2)S(=O)(=O)c2c(C)nn(C)c2C)cc1,-20%,-16%
CCCCNC(=O)Cn1c(=O)c2c(ncn2CC(C)C)n(CC(C)C)c1=O,6%,2%
O=C(Nc1nc2ccccc2s1)C12CC3CC(CC(C3)C1)C2,0%,?
CCOc1cccc(C2Nc3ccccc3-c3cc(C)nn32)c1O (centres undefined),23%,-8%
CC(=O)c1ccc(NS(=O)(=O)c2ccc(-c3cnc(C4CC4)o3)cc2)cc1,15%&0%,236%[activator]
CC(=O)c1c[nH]c(C(=O)NCC(=O)Nc2cccc3c(=O)[nH][nH]c(=O)c23)c1,-4%,8%
CC1CCC(NC(=O)c2cccc(C#N)c2)CC1 (centres undefined),159%[activator],5%
O=c1c2sc3ccccc3c2n(Cc2cccc(Cl)c2)c(=O)n1Cc1ccco1,-8%,-7%
N#Cc1cccc(NC(=O)CCSc2ccc(Cl)cc2)c1,0%,3%
CCOC(=O)N1CCc2c(sc3c2c(=O)n(Cc2ccccc2)c(=O)n3Cc2ccccc2Cl)C1,-5%,-10%
CCCCn1cc(S(=O)(=O)c2ccccc2)c(=O)c2cc(F)c(N3CCN(CCC)CC3)cc21,1%,9%
Cc1nnc(NC(=O)c2csc(NC3CCCC3)n2)s1,263%[activator],41%[activator]
Cc1ccccc1-c1cc(C(=O)O)c2ccccc2n1,10%,2%
Cc1cccc2c1N(Cc1ccccc1OCCC(C)C)C(=O)C2=O,9%,-11%
CCCNc1c(NC(=O)c2ccccc2OC)c(=O)oc2ccccc12,5%,17%
O=C(CN1CCN(c2cccc(C(F)(F)F)c2)CC1)Nc1nc(-c2ccc(F)c(F)c2)cs1,-11%,-14%
CC(NC(=O)/C(=C/c1ccc(Cl)cc1)NC(=O)c1ccco1)C(=O)O (centres undefined),-1%,-1%
CCCNC(=O)c1ccccc1-c1ncc(-c2ccc(F)cc2)o1,-8%,1%
CCOC(=O)N1CCc2c(sc(NCc3cc(OC)ccc3OC)c2C(=O)Nc2cc(OC)ccc2OC)C1,-9%,-19%
COc1ccc(C)cc1NC(=O)C(=O)NCC(c1cccnc1)N1CCc2ccccc21 (centres undefined),-22%,2%

# Continuation:
canonical_smiles,StopGo FLuc,2A Renilla
Cc1ccc(NC(=O)C2CCCN2S(=O)(=O)c2cccc3cccnc23)c(C)c1 (centres undefined),?,-6%
COc1ccc(-c2noc(CN(C)S(=O)(=O)c3c(C)cc(C)cc3C)n2)cc1OC,-13%,19%
Cc1cccc(NC(=O)N2CCC(N3CCN(Cc4ccccn4)C(=O)C3=O)CC2)c1C,14%,9%
CCc1ccc(-c2cc(C(=O)Nc3nn[nH]n3)c3ccccc3n2)cc1,92%[activator],0%
Cc1sc(-c2ccccc2)nc1-c1ccc(C(C)(C)C)cc1,19%,7%
CCOCCCN1C(=O)CN(C2CCCCCC2)C(=O)C1c1ccc(OC(C)C)c(OC)c1 (centres undefined),-6%,11%
CCOC(=O)c1ccccc1NC(=O)c1cc2c(s1)-c1ccccc1SC2,-17%,-1%
O=C(C1CCC(Cn2c(=O)c3sccc3n(Cc3cccc(F)c3)c2=O)CC1)N1CCCCC1 (centres undefined),-26%,1%
CC(C)(C)OC(=O)N[C@@H](CC(=O)OCc1ccccc1)C(=O)O,3%,7%
Cn1cnc2c1c(=O)n(CCCn1nnc(-c3ccccc3)n1)c(=O)n2C,12%,4%
C=CCOc1ccc(CNCCc2ccc(OC)cc2)cc1,-5%,-5%
CCCNC(=O)CN(C)C(=O)CCCc1c[nH]c2ccccc12,2%,-8%
CCC(C)NCCC(c1ccccc1)c1ccc(C)c(C)c1O (centres undefined),12%,17%
COc1ccc(C(=O)NCCSc2c(C)[nH]c3ccccc23)cc1,?,?
Cc1oc(-c2cccs2)nc1CC(=O)Nc1ccc(F)c(F)c1,11%,183%[activator]
CCc1cccc(NC(=O)c2cc3c(=O)n(Cc4ccc(OC)cc4)ccc3nc2C)c1,-22%,-13%
O=[N+]([O-])c1cccc(N/N=C/c2ccccn2)c1,0%,-11%
CCCOc1ccc(NC(=O)CC2C(=O)N(c3ccc(C)cc3)C(=O)N2C(C)C)cc1 (centres undefined),6%,1%
Cc1ccc(Nc2ccc(N3CCN(C(=O)c4cccc([N+](=O)[O-])c4)CC3)nn2)cc1,1%,-3%
Cc1csc(NC(=O)CCc2ncc(-c3ccccc3Cl)o2)n1,56%[activator],0%
COc1ccc(NC(=O)c2nc(C)n(-c3ccc(F)cc3)n2)c(OC)c1,4%,4%
CCN(CC)S(=O)(=O)c1cc(NC(=O)CCc2c(C)nc3ncnn3c2C)ccc1C,?,-28%
CC(=O)Nc1ccc(NC(=O)C2CC(=O)Nc3cc(F)ccc32)cc1 (centres undefined),14%,-4%
COn1c(=O)c(C)[n+]([O-])c2ccccc21,-3%,6%
Nc1nccnc1C(=O)NCC1CCOC1 (centres undefined),-8%,-10%
CCOCCn1ccc2c(OCC(=O)Nc3ccc(OC(F)(F)F)cc3)cccc2c1=O,-8%,17%
Cc1ccc(-c2nn(C)c(=O)c3c2CCCC3)cc1S(=O)(=O)N1CCCCCC1,2%,28%
COCCCNC(=O)Cn1c(=O)n(-c2ccc(C)cc2)c(=O)c2c1c1cc(C)ccc1n2C,-12%,-15%
Cc1ccc(NC(=O)c2oc3ccccc3c2NC(=O)Cc2cccs2)cc1,30%,5%
COc1ccccc1-c1cc2nc(C)c(CCC(=O)NC3CCCCC3)c(C)n2n1,?,-8%

# Next structures:
canonical_smiles,StopGo FLuc,2A Renilla
COc1ccccc1CNC(=O)Cn1c(=O)c2c(ncn2CC(C)C)n(Cc2ccccc2)c1=O,18%,14%
CC(Sc1cc(C(=O)NC2CC2)c2ccccc2n1)C(=O)NC1CCCC1 (centres undefined),-7%,7%
Cc1ccccc1NC(=O)Nc1ccc2nc(N3CCN(C)CC3)cc(C)c2c1,-4%,-4%
C/C(=N/NC(=S)NCc1ccccc1)c1cccc(C(F)(F)F)c1,18%,45%[activator]
CCCN(CCC)c1nc(OC(C(F)(F)F)C(F)(F)F)nc(N2CCOCC2)n1,-7%,-7%
COc1ccccc1C(=O)Nc1ccc2nc(SCCOc3ccccc3C)sc2c1,22%,8%
S=C(Nc1ccc(Cl)cc1Cl)NC1CC1,27%,63%[activator]
COc1ccccc1NC(=O)CSc1nnc(-c2cccc(Cl)c2)o1,106%[activator],-5%
CCCc1cc(=O)oc2c3c(ccc12)OCN(Cc1ccc(OC)cc1)C3,-21%,-11%
COc1cccc(Nc2nc(-c3ccc(CNC(=O)C(C)(C)C)s3)cs2)c1,22%,-6%
CCn1cc(S(=O)(=O)N2CCN(c3ccccc3C)CC2)cn1,16%,59%[activator]
Cc1cccc(N/N=C/c2ccc(Br)cc2)c1,97%[activator],24%
Cc1ccc(/C=N\NC(=O)c2ccc(C)cc2)cc1,285%[activator],0%
CN(Cc1ccccc1C#N)Cc1ccccc1N1CCCCC1,6%,-10%
COC(=O)CNC(=O)c1cc(C)cc(C)c1,-5%,-3%
COc1ccc(NC(=O)Cn2c(=O)oc3cc(S(=O)(=O)NCc4ccccc4)ccc32)c(OC)c1,?,24%
CCCC(=O)Nc1ccc(OCC(O)CNC(C)C)c(C(C)=O)c1 (centres undefined),4%,2%
CC(NC(=O)CSc1nnc(N2CCOCC2)n1-c1ccccc1)c1cc2ccccc2o1 (centres undefined),9%,4%
Cc1ccc(NC(=O)CSC2=NS(=O)(=O)c3ccccc3N2Cc2ccccc2)c(Cl)c1,-29%,-27%
Cc1noc(C(C)C)c1C(=O)NCc1ccnc(OC2CCCC2)c1,-15%,-4%
C=Cc1ccc(CN2C(=O)N(c3ccc(OCC)cc3)S(=O)(=O)c3ccccc32)cc1,-1%,6%
CC(C)(C)C1CCc2onc(C(=O)Nc3sc4c(c3C#N)CCCC4)c2C1 (centres undefined),-7%,1%
Fc1ccc(CCNC(=S)NC2CCCC2)cc1,199%[activator],105%[activator]

# A stretch from further up:
canonical_smiles,StopGo FLuc,2A Renilla
COc1ccccc1CNC(=O)Cn1c(=O)c2c(ncn2CC(C)C)n(Cc2ccccc2)c1=O,18%,14%
CC(Sc1cc(C(=O)NC2CC2)c2ccccc2n1)C(=O)NC1CCCC1 (centres undefined),-7%,7%
Cc1ccccc1NC(=O)Nc1ccc2nc(N3CCN(C)CC3)cc(C)c2c1,-4%,-4%
C/C(=N/NC(=S)NCc1ccccc1)c1cccc(C(F)(F)F)c1,18%,45%[activator]
CCCN(CCC)c1nc(OC(C(F)(F)F)C(F)(F)F)nc(N2CCOCC2)n1,-7%,-7%
COc1ccccc1C(=O)Nc1ccc2nc(SCCOc3ccccc3C)sc2c1,22%,8%

# Source: PubChem (National Center for Advancing Translational Sciences (NCATS))
